RE007 growth inh = less growth of the S. pombe RE007 Vpr strain; S. pombe RE007 Vpr strain, BacTiter-Glo ATP luminescence, 24 h; control for the full effect not named in the record; Potency, µM (titrated, usually from 92.2 µM), inactives show at the highest dose activity change, negative = less growth; hit rate 0.21% among 360,000; active = well fitted falling curve with a large enough effect; inconclusive = small, poorly fitted or top-dose-only effect; inactive = no such curve, though single readings can be large or run the other way;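 note: % is set by controls: 0 for no effect and ±100 for the full control effect; nearly all actives have a fitted effect of over 50% in size; the assay follows cell death caused by Vpr and the record does not say whether a fall means rescue or toxicity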
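Fission yeast strain RE007, carrying one chromosomally integrated HIV-1 vpr copy, was seeded at OD 0.01 in PMG+AL medium with 23 nL pinned compound. After 24 h at 30 °C and 99% humidity, viability was read by BacTiter-Glo luminescence.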
NS1 inh = influenza NS1 inhibition. S. cerevisiae slowed by influenza A NS1, growth recovery by OD600. Potency, µM (titrated, usually from 46.1 µM), inactives show at the top dose activity, positive = more growth. hit rate 0.4% among 270,000. AID 2326; note: actives are rising curves; nearly all actives have a fitted effect of over 50% in size
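In this qHTS, NS1 from influenza A is expressed in budding yeast, where it slows growth. Cells are switched from glucose to 2% galactose medium (pH 6.0, -URA), treated with compound, and growth recovery is read at OD600.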
2A StopGo = FMDV 2A StopGo reporter, luciferase signal; Potency, µM (highest dose often 57.9 µM), inactives show at the highest dose signal change, negative = less light; human cells with a luciferase reporter of 2A StopGo recoding; control for the full effect not named in the record; hit rate 1.2% among 410,000; AID 1159524; active = well fitted falling curve with a large enough effect; inconclusive = small, poorly fitted or top-dose-only effect; inactive = no such curve, though single readings can be large or run the other way; tested in HEK293T cells; note: % is set by controls: 0 for no effect and ±100 for the full control effect; nearly all actives have a fitted effect of over 45% in size; luciferase light after 4 h
Cruzain inh noDet = cruzain (T. cruzi) inhibition without detergent | P25779 | purified cruzain, Z-FR-AMC fluorescence, no detergent | AID 1476 | Potency, µM, without a hit: max response, negative = inhibition, most hits filed as inhibitors | hit rate 2.3% among 200,000; active = well fitted curve in the direction sought with a large enough effect; inconclusive = small, poorly fitted or top-dose-only effect, or another doubt; inactive = no such curve, though single readings can be large; an effect the other way counts as inactive or inconclusive;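 note: plate controls were enzyme without inhibitor for no effect and buffer without enzyme for full effect; nearly all actives have a fitted effect of over 40% in size; top concentration of the series not given in the record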
Target sequence (P25779 123-467 limits assumed): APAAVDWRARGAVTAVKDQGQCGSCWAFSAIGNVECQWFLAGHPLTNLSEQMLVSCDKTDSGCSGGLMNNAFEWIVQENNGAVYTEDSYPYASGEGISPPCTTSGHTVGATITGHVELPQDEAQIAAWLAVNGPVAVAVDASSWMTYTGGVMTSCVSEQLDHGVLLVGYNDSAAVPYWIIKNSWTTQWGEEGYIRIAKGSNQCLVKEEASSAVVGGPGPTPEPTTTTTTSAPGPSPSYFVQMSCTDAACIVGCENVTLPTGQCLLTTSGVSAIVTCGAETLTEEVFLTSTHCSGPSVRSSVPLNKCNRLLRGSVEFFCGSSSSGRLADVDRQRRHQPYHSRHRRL
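Detergent-free condition (0.00005% Triton X-100) in acetate buffer pH 5.5 with DTT. 1.5 nM enzyme and compound were pre-mixed 15 min, then 2 uM Z-FR-AMC substrate added; reaction progress from fluorescence change between first and third reads (60 s).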
LASV entry inh = blocks Lassa virus binding to or entry into cells | Potency, µM (series often up to 37.9 µM), without a hit: at the highest dose activity change, negative = inhibition, usual class: inhibitors | hit rate 1.2% among 300,000 | Lassa virus pseudotype entry inhibition, cell reporter; control for the full effect not named in the record; active means well fitted inhibition curve with a large enough effect; inconclusive means small, poorly fitted or top-dose-only effect, or effect the other way; inactive means flat fitted curve, though single readings scatter; tested in HEK293 cells; note: % is set by controls: 0 for no effect and ±100 for the full control effect; nearly all actives have a fitted effect of over 50% in size; luciferase read-out
SARS PLpro yeast = SARS-CoV PLP inhibition in yeast; S. cerevisiae expressing SARS-CoV PLpro, growth rescue; control for the full effect not named in the record; Potency, µM (titrated, usually from 32.9 µM), for the others: at the highest dose activity, positive = growth rescue; hit rate 0.19% among 330,000; AID 485353; note: 0% is about no effect; nearly all actives have a fitted effect of over 55% in size; growth read by luminescence after 48 h
Cruzain inh Det = inhibitors of Trypanosoma cruzi cruzain with detergent; P25779; Potency, µM, for inactives: max response, negative = inhibition, hits mostly inhibitors; hit rate 0.43% among 200,000; AID 1478; purified cruzain, Z-FR-AMC fluorescence, 0.01% Triton; active = well fitted curve in the direction sought with a large enough effect; inconclusive = small, poorly fitted or top-dose-only effect, or another doubt; inactive = no such curve, though single readings can be large; an effect the other way counts as inactive or inconclusive;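 note: plate controls were neutral wells for no effect and buffer without enzyme for full effect; nearly all actives have a fitted effect of over 40% in size; top concentration of the series not given in the record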
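Enzyme 1.5 nM, Z-FR-AMC 2 uM, NaOAc 100 mM pH 5.5, DTT 5 mM, Triton X-100 0.01%; 15 min RT compound preincubation; kinetic ex360/em450, 60 s delta.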
Marburg entry inh = blocks Marburg virus binding to or entry into cells; Marburg virus pseudotyped entry inhibition, cell reporter; control for the full effect not named in the record; about a third of the inactives were read at about 46 µM; Potency, µM (doses to about 37.8 µM), for inactives: at the top dose activity change, negative = inhibition, hits mostly inhibitors; hit rate 1.8% among 300,000; active = well fitted inhibition curve with a large enough effect; inconclusive = small, poorly fitted or top-dose-only effect, or effect the other way; inactive = flat fitted curve, though single readings scatter; tested in HEK293 cells; about a fifth of its hits are not listed in these tables; note: % is set by controls: 0 for no effect and ±100 for the full control effect; luciferase read-out
* hit, by the source's call; ? = inconclusive; . = not tested or not shown; & = joins results of further samples; [ ] = dose if it differs, or a comment. Unless noted, calls come from the whole dose curve; as a rule, active means well fitted rising curve with a large enough effect; inconclusive means small, poorly fitted or top-dose-only effect; inactive means no such curve, though single readings can be large or run the other way. Potency is the fitted concentration of half-maximal effect. This is a random part of the collection. Share with any hit: about 4.7%.

SMILES	RE007 growth inh	NS1 inh	2A StopGo	Cruzain inh noDet	LASV entry inh	SARS PLpro yeast	Cruzain inh Det	Marburg entry inh
COc1cc(C(O)P(=O)(OCCC(C)C)c2ccc(N(C)C)cc2)cc(OC)c1OC (stereo unspecified)	1%	2%	6%	.	-5%	1%	.	7%[14.2 µM]
Cc1ccc(CCN2CC(C(=O)NCCCN3CCCCCC3)CC2=O)cc1 (stereo unspecified)	8%	-6%	?	15%	16%	-1%	-3.9%	0%
C=CCc1ccccc1OCC(CN1CCCCC1)OC(C)=O (stereo unspecified)	-2%	6%	-5%	2%	16%	6%	-3.6%	2%
CCCN(CCC)Cc1cc2ccccc2c2c1COC2	-22%	8%	-2%	-6%	?	1%	2.0%	?
CCOCCCNC(=O)C(c1ccc(Cl)cc1)N(Cc1cccs1)C(=O)c1ccccn1 (stereo unspecified)	-3%	.	-12%	.	.	9%	.	?
CCCCC(NS(=O)(=O)c1ccc(C)cc1)C(=O)Oc1ccc2c3c(c(=O)oc2c1)CCC3 (stereo unspecified)	29%	17%	-19%	19%	14%	-6%	-7.3%	8%
COC(=O)C1C(=O)C2=C(CC1C)NC(=O)CC2c1ccccc1 (stereo unspecified)	-10%	8%	-13%	4%	4%	-8%	3.2%	28%
O=C(O)Cc1sc(NC2CCCCC2)nc1-c1ccc(Cl)cc1	-16%	15%	9%	.	24%[46.1 µM]	7%	.	21%[46.1 µM]
Cc1nn(C)c(C)c1S(=O)(=O)N1CCC(C(=O)NC2CCCc3ccccc32)CC1 (stereo unspecified)	-12%	-35%	-4%	?	.	3%	-3.5%	.
CCOc1nc(-c2ccccc2)ccc1-c1noc(COC)n1	-7%	-34%	-11%	?	?	-32%	-12%	16%
C/C(=N\NC(=O)Cc1cccn1C)c1ccc2ccccc2c1	-8%	6%	22%	-5%	-19%	1%	-8.2%	?
COc1cccc2cc(C(=O)CS(=O)(=O)c3ccc(Cl)cc3)c(=O)oc12	28%	10%	0%	.	.	-1%	.	.
O=c1oc2cc(O)ccc2cc1-c1ccccc1	-20%	-41%	0%	.	.	-26%	.	.
CCCOc1ccc(C(F)(F)F)cc1NS(=O)(=O)c1ccc(Cl)nc1	28%	.	8%	.	5%	2%	.	-18%[46.1 µM]
COc1cc(C2=NOC(C(=O)Nc3ccc(C(C)=O)cc3)C2)cc(OC)c1OC (stereo unspecified)	4%	0%	23%	7%	14%	12%	4.5%	0%
Nc1nc(N)c2sc3nc4c(cc3c2n1)CCC4	-9%	-5%	4%	-1%	2%	8%	-6.1%	7%
Fc1ccc(C(c2nnnn2C2CCCC2)N2CCc3ccccc32)cc1 (stereo unspecified)	2%	-2%	9%	-3%	17%	-11%	-4.0%	?
CCc1ccc(CNC(=O)Cn2nc(C)c3c(C)n(-c4ccc(C)cc4)nc3c2=O)cc1	.	.	-7%	3%	6%[46.1 µM]	.	-1.4%	.
Nc1c(C(=O)NCC2CCCO2)sc2nc3c(c(-c4ccco4)c12)CC/C3=C\c1ccco1 (stereo unspecified)	-2%	?	-1%	-4%	1%	20%	28µM*	?
O=C(Nc1cc(C(F)(F)F)ccc1N1CCOCC1)c1ccco1	13%	-2%	17%	4%	1%	-3%	4.0%	8%
CCOCCCn1c(=S)[nH]c2cc(C(=O)NC3CCCC(C)C3C)ccc2c1=O (stereo unspecified)	1%	2%	5%	.	?	0%	.	?
COc1cc2cc(C(c3nnnn3C(C)(C)C)N3CCC(C)CC3)c(=O)[nH]c2cc1OC (stereo unspecified)	-16%[3.69 µM]	0%	38%[activator]	3%	-3%	4%	-10%	2%
C/C(=N\NC(=O)c1ccccc1)c1cccc(Br)c1	-2%	.	32%[activator]	.	?	-1%	.	?
Cc1ccc(-n2nnnc2SC(C)C(N)=O)c(C)c1 (stereo unspecified)	-2%	-3%	0%	5%	3%	0%	2.2%	0%
Cc1ccc(S(=O)(=O)N(C)c2ccc(OCc3cccc(C)c3)cc2)cc1	-13%	19%	-9%	.	-41%	9%	.	-1%
CC(C)Cn1c(SCC(=O)N2CCc3ccccc3C2)nc2cc(Cl)ccc2c1=O	-4%	11%	0%	?	0%	8%	-2.7%	-9%
Cc1ccc(SC[C@H](c2ccccc2)N2CCN(CCc3ccccc3)CCC2=O)cc1	4%	-43%	11%	.	.	-2%	.	.
CN1CCC(=C(c2ccc(Cl)cc2)c2ccccn2)CC1	-1%	7%	-15%	.	.	0%	.	.
O=S(=O)(NC1CCCCC1)OCC(Cl)(Cl)Cl	-9%	-22%	37%[activator]	.	.	6%	.	.
Cn1c2ccccc2c(=O)c2c(=O)n(-c3ccccc3)c(C3CCCCC3)nc21	10%	29%	-39%	-10%	1%	-22%	-4.8%	?
O=C(Nc1ccccc1)N1CCCN(Cc2c(F)cccc2Cl)CC1	-10%	0%	-8%	.	7%	1%	.	?
CCCCCn1c(NCc2ccc(OC)cc2)nc2ccccc21	.	.	-29%	8%	?	.	3.4%	?
O=C(NCCc1ccccn1)/C(=C/c1ccco1)NC(=O)c1ccccc1	1%	7%	2%	.	8%[46.1 µM]	-2%	.	3%[46.1 µM]
Cc1ccc(S(=O)(=O)N(C)C)cc1NC(=O)CN1CCN(Cc2ccccc2)CC1	-9%	.	-22%	.	-11%	3%	.	?
CCN(Cc1ccccc1)C(=O)c1cccc(S(=O)(=O)N2CCN(Cc3ccccc3)CC2)c1	-2%	.	?	.	-18%	0%	.	-31%
Cc1ccc(-c2nc3c(c(SCC(=O)N(C)c4ccccc4)n2)Cc2c(CO)cnc(C)c2O3)cc1	.	.	?	?	-19%[46.1 µM]	.	-10%	.
CCCOc1ccccc1C(=O)N(Cc1ccco1)C1CCS(=O)(=O)C1 (stereo unspecified)	-5%	6%	-15%	5%	0%	2%	-2.8%	?
Cc1ccc(NC(=O)CN(C)S(=O)(=O)c2cccs2)cc1F	2%	-2%	-25%	1%	-19%	-7%	1.4%	-17%
Cc1ccc2cc(NC(=O)c3ccccc3C)ccc2n1	-14%	-5%	35%[activator]	.	-17%[46.1 µM]	-2%	.	18%[46.1 µM]
CCOC(=O)C1=C(C)NC(SCC(=O)OC)=C(C#N)C1c1ccc(C(=O)OC)cc1 (stereo unspecified)	19%&-3%	-31%	4%&-5%	?	27%&2%	8%	-9.1%	1%&-3%
COc1ccccc1C(=O)N1C(CC(=O)Nc2ccccc2C)C(=O)NC2CCCCC21 (stereo unspecified)	13%	4%	-13%	.	-3%[46.1 µM]	1%	.	10%[46.1 µM]
CCOC(=O)/C(C#N)=c1/s/c(=C2\C=Cc3ccccc3N2CC)c(=O)n1CC	-11%	-1%	-17%	9%	?	3%	6.2%	11%
COc1ccc(-c2cc(C(F)(F)F)nc(SCC(=O)NCCc3ccccc3)n2)cc1	.	.	24%	-12%	-4%[46.1 µM]	.	3.3%	27%[46.1 µM]
COc1cc(C(=O)NCCc2ncccc2C)ccc1OC1CCN(C(C)=O)CC1	1%	-2%	11%	.	.	-4%	.	.
COc1ccc(N2C(=O)[C@@H]3C(c4cccnc4)=NO[C@@H]3C2=O)cc1	-29%	6%	-2%	.	.	-1%	.	.
COCCCn1c2nc3ccccc3nc2c2c(=O)n(-c3ccccc3OC)c(C)nc21	.	12%	.	1%	.	-7%	-2.1%	.
Cc1nc2c(c(-c3ccccc3)c1C#N)C(=O)c1ccccc1-2	-5%	-7%	-29%	12%	-15%	-1%	-2.8%	-3%[46.1 µM]
CC1Cc2cc(/C(O)=C3/C(=O)C(=O)N(CCCN4CCOCC4)C3c3ccc(C(C)C)cc3)ccc2O1 (stereo unspecified)	-7%	29%	-23%	.	-18%[46.1 µM]	-2%	.	16%[46.1 µM]
CCOC(=O)C1(Cc2cccc(OC)c2)CCN(Cc2cccc3c2OCO3)CC1	-10%	1%	-29%	.	?	1%	.	?
Cc1ccc2cccc(OCC(=O)Nc3cccc(S(=O)(=O)N4CCCC4)c3)c2n1	?	.	40µM*	.	?	-2%	.	?

The results go on.
SMILES	RE007 growth inh	NS1 inh	2A StopGo	Cruzain inh noDet	LASV entry inh	SARS PLpro yeast	Cruzain inh Det	Marburg entry inh
Cn1cc(C(=O)N/N=C/c2ccc3c(c2)OCO3)c2ccccc21	-16%	-13%	2%	.	-11%[46.1 µM]	-1%	.	13µM*
CC(C)(C)NC(=O)C(c1ccccc1F)N(Cc1ccco1)C(=O)c1csnn1 (stereo unspecified)	-4%	0%	9%	-11%	3%	7%	0.7%	13%
Cc1ncc([N+](=O)[O-])n1CC(=O)Nc1ccc(F)c(Cl)c1	3%	2%	-17%	.	-4%[46.1 µM]	3%	.	-4%[46.1 µM]
O=S(=O)(NNc1cccc(Cl)n1)c1ccc(Cl)cc1	-6%	-24%	-19%	.	.	0%	.	.
Oc1[nH]c2ccccc2c1N=NC(=S)N1CCOCC1	9%	-62%	?	.	.	-5%	.	.
CCn1c(SCC(=O)OC)nc2sc3c(c2c1=O)CC(C)(C)OC3	6%	-4%	0%	.	3%	0%	.	7%[46.1 µM]
CCn1cc([N+](=O)[O-])c(C(=O)Nc2nc(-c3ccc(C)c(C)c3)c(C)s2)n1	-7%	-1%	-18%	-1%	3%	3%	-0.6%	-18%
Cc1ccc2oc(=O)c3cnn(CC(=O)Nc4ccccc4N4CCN(C)CC4)c3c2c1	0%	-11%	-21%	-4%	.	13%	-1.1%	3%
Cc1cccc(NC(=O)c2cc(S(=O)(=O)N3CCC4(CC3)OCCO4)ccc2F)c1	10%	-1%	-11%&-12%	?	-2%[46.1 µM]	0%	-1.2%	.
Cc1cccc(C)c1NC(=O)CN(C)C(C)C(=O)Nc1ccccc1-c1ccccc1 (stereo unspecified)	-12%	.	-26%	.	?	-3%	.	?
N=c1n(Cc2ccccc2)c2ccccc2n1Cc1ccccc1	6%	-22%	0%	-7%	?	16%	-1.7%	?
O=C(NNc1ccccc1[N+](=O)[O-])Nc1ccc(F)cc1F	7%	4%	-2%	.	1%	0%	.	3%[46.1 µM]
